Screening data as filed in PubChem BioAssay.
PV pol inh: inhibitors of poliovirus RNA polymerase binding and polymerization. % elongation, % (compound at 16.7 µg/mL). poliovirus polymerase elongation, fluorescence polarization; hits give low values. actives 0.66% (n = 150,000); in the data active = % elongation below about 90%; note: some results filed as inactive read as strong as hits
Target sequence (P03300 1749-2209 limits assumed): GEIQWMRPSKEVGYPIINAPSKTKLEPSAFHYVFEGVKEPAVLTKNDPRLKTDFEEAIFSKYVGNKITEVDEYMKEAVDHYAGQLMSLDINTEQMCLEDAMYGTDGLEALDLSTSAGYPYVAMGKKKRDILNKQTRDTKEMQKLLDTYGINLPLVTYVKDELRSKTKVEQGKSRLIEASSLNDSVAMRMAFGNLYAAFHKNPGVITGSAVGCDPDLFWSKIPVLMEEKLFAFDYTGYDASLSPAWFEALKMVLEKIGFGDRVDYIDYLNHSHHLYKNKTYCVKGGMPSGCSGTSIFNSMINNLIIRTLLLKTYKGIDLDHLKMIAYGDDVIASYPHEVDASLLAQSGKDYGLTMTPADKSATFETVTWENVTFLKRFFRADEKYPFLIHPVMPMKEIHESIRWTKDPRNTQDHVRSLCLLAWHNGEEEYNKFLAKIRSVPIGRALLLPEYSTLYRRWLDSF
PV pol inh intensity: second read-out of PV pol inh, no call of its own (marks repeat the call); % elongation; measured here: total intensity read-out; formula for this scale not given here;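 total fluorescence in place of polarization; lower means less elongation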
An asterisk follows results filed as active. Some of the compounds tested. The share of hits here may be higher or lower than overall.

Values in the order: PV pol inh, PV pol inh intensity
- CCC(=O)N1CCc2cc(S(=O)(=O)NCCC(=O)Nc3cccc(C)c3C)ccc21
→ 106, 106
- COc1ccccc1C(=O)Nc1c(C(=O)N(C)Cc2ccccc2)sc2nc(C)c(Cl)c(C)c12
→ 109, 113
- O=C(Nc1ccc(F)cc1F)c1cc(-c2ccc(Cl)cc2)on1
→ 103, 105
- Cc1cccc(NC(=O)CSc2nnc3[nH]c(=O)cc(-c4ccccc4)n23)c1C
→ 106, 101
- COc1cccc(C(=O)N2CCC(N3CCN(Cc4ccc(F)cc4)C(=O)C3=O)CC2)c1
→ 107, 111
- COc1cc(OC)c(NC(=O)C(Cc2ccccc2)NS(=O)(=O)c2cccc3nsnc23)cc1Cl (stereo not given)
→ 106, 106
- CC(=O)c1ccc(NC(=O)COc2ccccc2-c2nc(C(C)C)no2)cc1
→ 110, 106
- Cc1cccn2c(=O)cc(CSc3nnc(NC(=O)c4ccc(F)cc4)s3)nc12
→ 108, 107
- COC(=O)c1c(-c2ccc(Cl)cc2)noc1N1CCN(c2cccc(OC)c2)CC1
→ 102, 107
- CCCCNC(=O)c1cc2n(n1)CCCN(Cc1ccc(C)cc1)C2=O
→ 110, 107
- O=C(Cc1ccc(F)cc1)NCCc1csc2nc(-c3ccccc3F)nn12
→ 111, 102
- Cc1ccc(NS(=O)(=O)c2cn(C)c(C)n2)c(Br)c1
→ 103, 106
- Cc1ccc(OCCn2cc(C(=O)C3CCCCC3)c3ccccc32)cc1
→ 103, 106
- Cc1ccc2[nH]cc(C(c3ccccc3)c3ccc(C)s3)c2c1 (stereo not given)
→ 107, 110
- CCN(Cc1nc(-c2ccc(OC)cc2)oc1C)S(=O)(=O)c1ccc(Cl)cc1
→ 110, 106
- Cc1cc(Cl)ccc1OCC(=O)N(Cc1sccc1C)C1CCS(=O)(=O)C1 (stereo not given)
→ 112, 115
- Cc1cc2nn(-c3ccc(F)cc3)nc2cc1NC(=O)c1cccc2ccccc12
→ 110, 109
- COc1ccc(CNC(=O)Cc2csc3nc(-c4ccc(F)cc4)cn23)cc1
→ 98, 94
- Cc1ccc(C)c(NC(=O)CSc2nc3ccccc3nc2N2CCOCC2)c1
→ 105, 112
- CCOc1ccc(CCNC(=O)CN(c2ccc(C)cc2)S(=O)(=O)N(C)C)cc1OCC
→ 107, 111

(more compounds)
Values in the order: PV pol inh, PV pol inh intensity
- Cc1ccc(NC(=O)C(=O)NCC(c2cccnc2)N2CCc3ccccc32)cc1Cl (stereo not given)
→ 105, 97
- O=C(COc1ccccc1Cl)Nc1ccc(OCc2cc(=O)n3ccsc3n2)cc1
→ 106, 108
- CNC(=O)C1CCN(C(=O)N2CC(C)Oc3ccc(C)cc32)CC1 (stereo not given)
→ 110, 111
- COc1cc(Br)c(/C=C(\C#N)c2nc3ccccc3[nH]2)cc1OC
→ 101, 129
- Cc1cccc(NC(=O)C2CCCN2S(=O)(=O)c2ccc3c(c2)n(C)c(=O)c(=O)n3C)c1 (stereo not given)
→ 97, 103
- Cc1oc(-c2ccc(C(=O)NC(C)c3ccccc3)cc2)nc1CS(=O)(=O)c1ccccc1 (stereo not given)
→ 110, 112
- CCOC(=O)c1[nH]c(C)c(CCC(=O)Nc2cccc(C(F)(F)F)c2)c1C
→ 108, 108
- CCC(CC)C(=O)Nc1ccc2nc(SCC(=O)N3CCOCC3)sc2c1
→ 105, 106
- Cc1ccc(Sc2c(C)nn(C(=O)COc3ccccc3Br)c2C)cc1
→ 104, 105
- Cc1ccc(S(=O)(=O)Nc2ccc3c(c2)c(C(=O)OC(C)C)c(C)n3S(=O)(=O)c2ccc(C)cc2)cc1
→ 106, 107
- COc1ccccc1Nc1nn2c(=O)c3ccc(C(=O)NCc4ccc(F)cc4)cc3nc2s1
→ 103, 105
- CCCCCn1c(=O)[nH]c2cc(C(=O)Nc3cc(OC)cc(OC)c3)ccc2c1=O
→ 105, 110
- Cc1ccc(C)c(Cn2cc(CCC(=O)NC3CCCCC3)c3ccccc32)c1
→ 105, 111
- CCOC(=O)C1CCN(CCC(=O)Nc2ccccc2OC)CC1
→ 100, 99
- CCC1CN(C(=O)N2CCC(C(=O)NCCc3ccccc3C)CC2)c2ccccc2O1 (stereo not given)
→ 98, 96
- CC(C)c1ccc(S(=O)(=O)N2CCN(Cc3cccc(F)c3)CC2)cc1
→ 107, 96
- COc1ccc(NC(=O)CSc2nc3ccccc3nc2N2CCOCC2)c(OC)c1
→ 110, 109
- Cc1ccc(S(=O)(=O)NCC(c2ccc(N(C)C)cc2)N2CCc3ccccc32)cc1 (stereo not given)
→ 108, 110
- CCOc1ccc(C(=O)c2cn(CC(=O)Nc3ccc(OC)cc3)c3cc4c(cc3c2=O)OCCO4)cc1
→ 109, 107
- CCc1cccc(C)c1NC(=O)CN1CCN(Cc2ccccc2Cl)S1(=O)=O
→ 101, 95

Reformatted field by field: entries from further up
structure: Cc1ccc(C)c(NC(=O)CSc2nc3ccccc3nc2N2CCOCC2)c1
  PV pol inh: 105	PV pol inh intensity: 112
structure: CCOc1ccc(C(=O)c2cn(CC(=O)Nc3ccc(OC)cc3)c3cc4c(cc3c2=O)OCCO4)cc1
  PV pol inh: 109	PV pol inh intensity: 107

(cont.)
Values in the order: PV pol inh, PV pol inh intensity
- COc1cccc(-c2cn3c(n2)sc2cc(C(=O)NCCc4ccccc4)ccc23)c1
→ 107, 107
- Cc1nc(-c2ccc(Cl)cc2)sc1CCNC(=O)C(=O)Nc1ccc2c(c1)OCO2
→ 111, 116
- Cc1cn2c(=O)cc(COc3cccc(NC(=O)c4ccc(C(C)(C)C)cc4)c3)nc2s1
→ 101, 102
- Cc1c(NC(=O)c2cc(=O)c3ccccc3o2)c(=O)n(-c2ccccc2)n1C
→ 111, 110
- CCc1ccc(NC(=O)c2cccn(Cc3cccc([N+](=O)[O-])c3)c2=O)cc1
→ 109, 109
- COC(=O)c1c(C)sc(-c2c(-c3ccc(F)cc3)[nH]c3[nH]c(=O)[nH]c(=O)c23)c1O
→ 125, 120
- CCOCCCn1c(SCC(=O)Nc2ccccc2CC)nc2ccccc2c1=O
→ 101, 106
- CC(C)CCNC(=O)c1cccc(Nc2nc3ccccc3n3nnnc23)c1
→ 106, 106
- Cc1ccc(NC(=O)CC2Nc3cccc4cccc(c34)NC2=O)cc1 (stereo not given)
→ 95, 97
- CC(=O)c1cccc(Nc2ncnc3c2cnn3C)c1
→ 99, 102
- CCCn1cc(S(=O)(=O)c2ccc(OCC)cc2)c(=O)c2cc(C)ccc21
→ 107, 111
- Cc1ccc(CCNC(=O)c2ccc(CS(=O)(=O)Cc3ccc(Cl)cc3)o2)cc1
→ 105, 108
- Fc1ccc(NCc2nc3ccccc3n2CCOc2ccccc2Cl)cc1
→ 103, 98
- COc1cc(-c2nc3cnccn3c2Nc2ccc(C(C)C)cc2)ccc1O
→ 104, 108
- CC(=O)Nc1ccc(C)cc1-c1nc2ccccc2n(CC(=O)Nc2cc(Cl)ccc2C)c1=O
→ 106, 112
- Cc1cccc(NC(=O)Cn2c(SCC(=O)NCc3ccccc3)nc3ccccc32)c1C
→ 99, 95
- Cc1ccc(C)c(CN2C(=O)c3ccccc3S(=O)(=O)c3ccc(C(=O)N4CCN(C)CC4)cc32)c1
→ 99, 102
- CC(C)(C)c1ccc(C(=O)Nc2ccc(NC(=O)c3ccc(Cl)c(Cl)c3)cc2)cc1
→ 103, 103
- CCCN(CCC)CC(O)Cn1cc(/C=C/C(=O)c2ccc(C)cc2)c2ccccc21 (stereo not given)
→ 108, 105
- COc1ccc(/C=C(/C#N)c2nc(-c3ccc(Br)cc3)cs2)cc1
→ 99, 108

Gathered by group, those above with a cyano group.
Values in the order: PV pol inh, PV pol inh intensity
- COc1cc(Br)c(/C=C(\C#N)c2nc3ccccc3[nH]2)cc1OC
→ 101, 129
- COc1ccc(/C=C(/C#N)c2nc(-c3ccc(Br)cc3)cs2)cc1
→ 99, 108

(continued)
Values in the order: PV pol inh, PV pol inh intensity
- CCCCN(C)CCCNC(=O)C1CCN(c2nc3ccc(CC)cc3s2)CC1
→ 110, 111
- CCOc1ccc(CCNc2ncnc3onc(-c4ccc(F)cc4)c23)cc1OCC
→ 103, 102
- CCOC(=O)c1cnc2c(C)cc(C)cc2c1NCCN1CCOCC1
→ 107, 109
- Cc1ccc(Cl)cc1N1CCN(c2ncnc3onc(C)c23)CC1
→ 103, 112
- CCC(=O)N1c2ccc(S(=O)(=O)N3CCCCCC3)cc2CC1C (stereo not given)
→ 108, 110
- O=C(Cn1cc(SCc2ccccc2F)c2ccccc21)N1CCCC1
→ 119, 120
- Cc1cc(C)cc(-n2c(C)nc3cc(C(=O)O)ccc32)c1
→ 106, 110
- CC(NC(=O)c1ccc(CSc2nc3ccncc3n2Cc2ccc(F)cc2)cc1)c1ccccc1 (stereo not given)
→ 106, 110
- COCCN(Cc1cccs1)S(=O)(=O)c1cc(-c2cc(C)no2)ccc1C
→ 102, 97
- Cc1nc2ccccc2n1CCc1nc2c3ccccc3nc(SCC(=O)Nc3ccc(C(C)C)cc3)n2n1
→ 104, 110
- CCn1c(CNC(=O)c2ccc(OC)cc2)nnc1SCC(=O)Nc1ccc(C)cc1
→ 106, 103
- COc1ccc(CN2C(=O)C(NC(=O)c3ccc(C)cc3)(C(F)(F)F)N=C2c2ccccc2)cc1 (stereo not given)
→ 107, 109
- COc1ccc(-c2onc(C)c2C)cc1S(=O)(=O)NCc1ccc(C)o1
→ 100, 109
- CCc1ccc(S(=O)(=O)c2nnn3c2nc(NCCC(C)C)c2cc(Cl)ccc23)cc1
→ 102, 103
- CCCCc1c(C)nc2c(-c3ccc(OC)cc3)c(C)[nH]n2c1=O
→ 106, 108
- COc1ccccc1-c1noc(CSc2nc3ccc(C)cc3[nH]2)n1
→ 104, 102
- CCOc1cc(C(=O)Nc2ccc3nc(N4CCN(C)CC4)cc(C)c3c2)cc(OCC)c1OCC
→ 99, 95
- Cc1ccc(NC(=O)CCC(=O)N2Cc3ccccc3Oc3ncccc32)cc1
→ 109, 112
- COCCn1c(CCC(=O)Nc2ccc(C)c(Cl)c2)nc2cccnc21
→ 106, 112
- CCCCCn1c(CCCNC(=O)c2ccc(Cl)cc2)nc2ccccc21
→ 104, 106

Copied from the list:
COc1ccccc1-c1noc(CSc2nc3ccc(C)cc3[nH]2)n1 in PV pol inh is entered as 104
COCCN(Cc1cccs1)S(=O)(=O)c1cc(-c2cc(C)no2)ccc1C in PV pol inh is entered as 102
CCn1c(CNC(=O)c2ccc(OC)cc2)nnc1SCC(=O)Nc1ccc(C)cc1 in PV pol inh is entered as 106
CCOc1cc(C(=O)Nc2ccc3nc(N4CCN(C)CC4)cc(C)c3c2)cc(OCC)c1OCC in PV pol inh intensity is entered as 95
Cc1ccc(Cl)cc1N1CCN(c2ncnc3onc(C)c23)CC1 in PV pol inh is entered as 103

Five of these compounds in another layout.
structure | PV pol inh | PV pol inh intensity
Cc1nc2ccccc2n1CCc1nc2c3ccccc3nc(SCC(=O)Nc3ccc(C(C)C)cc3)n2n1 | 104 | 110
CCn1c(CNC(=O)c2ccc(OC)cc2)nnc1SCC(=O)Nc1ccc(C)cc1 | 106 | 103
COc1ccc(CN2C(=O)C(NC(=O)c3ccc(C)cc3)(C(F)(F)F)N=C2c2ccccc2)cc1 (stereo not given) | 107 | 109
COc1ccc(-c2onc(C)c2C)cc1S(=O)(=O)NCc1ccc(C)o1 | 100 | 109
CCc1ccc(S(=O)(=O)c2nnn3c2nc(NCCC(C)C)c2cc(Cl)ccc23)cc1 | 102 | 103

Next part:
Values in the order: PV pol inh, PV pol inh intensity
- COc1ccc(-n2c(/C=C\c3ccccc3F)nc3ccccc3c2=O)c(OC)c1
→ 111, 112
- COc1ccccc1NC(=O)N1c2ccccc2Sc2ccccc21
→ 103, 106
- Cc1cccc(NC(=O)Cn2c(=O)n(Cc3nc(-c4ccccc4)no3)c(=O)c3ccccc32)c1
→ 106, 105
- CCCn1c(=NC(=O)c2c(-c3c(F)cccc3Cl)noc2C)c(C(=O)OCC)cc2c(=O)n3ccccc3nc21
→ 98, 102
- COCCNC(=O)C(=O)NCC(c1cccnc1)N1CCN(c2ccccc2F)CC1 (stereo not given)
→ 114, 114
- COC(=O)c1cc2occc2n1Cc1nc(-c2ccccc2F)oc1C
→ 107, 113
- COc1ccccc1-c1nnc(C2CCN(S(=O)(=O)c3ccccc3)CC2)o1
→ 109, 109
- COc1ccc(N2C(=O)CSC23C(=O)N(CC(=O)NC2CCCCC2)c2ccccc23)cc1 (stereo not given)
→ 115, 113
- COc1ccc(C)cc1NC(=O)Nc1cccc(OCc2cc(=O)n3ccc(C)cc3n2)c1
→ 104, 115
- CCCCOc1ccc(C2=NC(c3ccncc3)=Nc3ccc(OCC)cc3N2)cc1
→ 114, 108
- CCc1ccccc1NS(=O)(=O)c1ccc2c(c1)CC(=O)N2
→ 99, 97
- COc1ccccc1CNC(=O)Cn1c(=O)oc2cc(S(=O)(=O)N3CCC(C)CC3)ccc21
→ 99, 96
- COc1ccc(NC(=O)c2cc(-c3ccc(F)cc3)no2)cc1OC
→ 107, 108
- CCN1CCN(C(=O)c2ccc3c(c2)N(Cc2cccc(Cl)c2)C(=O)c2ccccc2S3(=O)=O)CC1
→ 106, 112
- O=C(CN1CCN(Cc2ccc(F)cc2)C1=O)NCc1ccccc1
→ 115, 116
- Cc1ccccc1CNC(=O)Cn1c(C)c2cnn(-c3ccccc3)c(=O)c2c1C
→ 109, 111
- Cc1ccc(CNC(=O)c2ccc3c(c2)nc(C)n3-c2cccc(F)c2)cc1
→ 104, 111
- CCOc1ccc(CNC(=O)C2CCN(c3nc4ccccc4nc3C(F)(F)F)CC2)cc1OC
→ 107, 106
- CCOC(=O)c1c(Nc2cccc(C)c2)nnc(-c2ccccc2)c1-c1ccccc1
→ 102, 104
- CCC(CC)C(=O)Nc1cc(-c2nc3cccnc3s2)ccc1C
→ 110, 106
